SENP8 inh: SENP8 protease inhibitors, primary screen, biochemical, luminescence. Sentrin-specific protease 8 (Homo sapiens), Q96LD8. purified SENP8, Z-RLRGG-aminoluciferin cleavage. inhibition, % at 10 µM. actives 1.2% (n = 330,000). AID 2540, 2010; in the data active means inhibition above about 50%
Target sequence (Q96LD8 whole entry, looked up): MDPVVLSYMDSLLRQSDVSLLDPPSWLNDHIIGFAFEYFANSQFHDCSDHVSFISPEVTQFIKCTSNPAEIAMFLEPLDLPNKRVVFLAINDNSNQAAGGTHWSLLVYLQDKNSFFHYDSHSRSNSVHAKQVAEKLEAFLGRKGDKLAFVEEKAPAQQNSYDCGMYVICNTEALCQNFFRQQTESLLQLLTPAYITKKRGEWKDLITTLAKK
Gli-Sufu antag: Gli-Sufu pathway antagonists, primary screen, luciferase luminescence, Sufu-KO-LIGHT cells, uHTS. Sufu-KO-LIGHT fibroblasts, Gli luciferase reporter luminescence. inhibition, % at 5 µM. actives 0.74% (n = 340,000). AID 588413, 2011;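 active means inhibition above about 55%, limit read from the data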;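 further: 0% = DMSO-treated cells and 100% = wells with medium but no cells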
UBC13 polyUb: UBC13 polyubiquitin chain formation inhibitors, primary screen, biochemical, TR-FRET, uHTS | inhibition, % at 20 µM | actives 0.47% (n = 330,000) | AID 485273, 2010; in the data active means inhibition above about 45%, passing the limit was not always enough; inconclusive means no clear call, values can overlap the other calls
Target sequence (P61088 whole entry, looked up): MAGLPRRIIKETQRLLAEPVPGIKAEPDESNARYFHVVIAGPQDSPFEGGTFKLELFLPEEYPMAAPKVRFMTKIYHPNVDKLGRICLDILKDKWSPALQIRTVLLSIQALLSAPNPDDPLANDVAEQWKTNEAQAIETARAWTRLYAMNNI
SENP7 inh: SENP7 protease inhibitors, primary screen, biochemical, luminescence, uHTS; recombinant SENP7, Z-RLRGG-aminoluciferin luminescence, 40 min; inhibition, % at 5 µM; actives 1.5% (n = 330,000); AID 434973, 2010;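 active means inhibition above about 50% at the single test dose, limit read from the data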;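 further: plate controls were DMSO with enzyme for no effect and no enzyme buffer wells for full effect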
Target sequence (Q9BQF6 706-1050 limits assumed): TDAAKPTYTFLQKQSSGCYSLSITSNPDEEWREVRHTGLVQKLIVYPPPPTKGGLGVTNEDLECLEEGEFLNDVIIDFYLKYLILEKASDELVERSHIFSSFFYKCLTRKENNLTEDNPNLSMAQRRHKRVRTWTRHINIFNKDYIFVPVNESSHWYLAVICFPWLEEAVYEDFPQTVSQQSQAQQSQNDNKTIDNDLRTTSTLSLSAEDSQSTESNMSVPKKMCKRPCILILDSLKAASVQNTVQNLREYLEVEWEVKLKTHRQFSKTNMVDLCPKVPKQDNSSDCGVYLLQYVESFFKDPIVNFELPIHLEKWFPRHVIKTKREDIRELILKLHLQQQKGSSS
Apaf-1 inh: inhibitors of human Apaf-1 apoptosome, primary screen, biochemical, DEVD-Rh110 fluorescence, uHTS. Apoptotic protease-activating factor 1 (Homo sapiens), O14727. reconstituted apoptosome caspase-3 activity. inhibition, % at 20 µM. actives 0.71% (n = 330,000). AID 489030, 2010; active means inhibition of at least 40% at 20 µM;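 further: plate controls were DMSO wells for no effect and DEVD-CHO caspase inhibitor wells for full effect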
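detection = Rh110 fluorescence intensity | test system = biochemical Apaf-1 apoptosome reconstitution | also added = cytochrome c and DEVD-Rh110 substrate | schedule = 30 min plus 50 min, RT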
HKDC1 inhibitor: HKDC1 hexokinase inhibitors, primary screen, biochemical, fluorescence, uHTS; inhibition, % at 20 µM; Q2TB90; recombinant HKDC1, G6PDH/diaphorase resazurin coupled fluorescence; AID 493160, 2011; actives 0.16% (n = 340,000);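 active means inhibition above about 35% when tested at 20 µM, limit read from the data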;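 further: plate controls were DMSO wells with enzyme for no effect and DMSO wells lacking enzyme for full effect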
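System: Recombinant HKDC1 hexokinase | Amount: HKDC1 at 5 µg/mL | Reagent: Glucose with 1 mM ATP | Doses: Single 20 µM dose | Incubation: Reaction time 90 min, room temperature, protected from light | Signal: Coupled resazurin fluorescence, excitation 525 nm, emission 613 nm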
* hit, by the source's call; ? = inconclusive; nt = not tested or not shown; & = joins results of further samples.

Second line of a record – SENP8 inh	Gli-Sufu antag	UBC13 polyUb	SENP7 inh	Apaf-1 inh	HKDC1 inhibitor
> CN(C)CCOC(c1ccccc1)c1ccccc1
  0&2	0&44	-2&11	-13&3	-5&15	-7&-3
> CCCCN(CCCC)CCC(O)c1cc2c(Cl)cc(Cl)cc2c2cc(C(F)(F)F)ccc12 (stereo not drawn)
  -3	6	52*	6	49*	0
> CCOc1ccc(-c2cc(C(=O)N/N=C/c3ccc(O)cc3)c3ccccc3n2)cc1
  -2	-66	-13	-1	1	1
> Cc1cc(C)nc(NS(=O)(=O)c2ccc(N)cc2)n1
  3	3	-4	1	4	-6
> O=C1Nc2ccccc2C1=O
  -4	-2	-19	4	-1	1
> CCN(CC)CCNC(=O)c1cc(Br)c(N)cc1OC
  16	0	7	-10	-9	-5
> O=C(O)CCSCCC(=O)O
  -1	3	?	-5	-2	-6
> CC1=C(C/C=C(\C)CCCC(C)CCCC(C)CCCC(C)C)C(=O)c2ccccc2C1=O (stereo not drawn)
  9	-31	-18	-1	6	11
> CCCCC(=O)O
  -15	0	-1	-13	4	3
> Cc1ccc(C(=O)O[C@H](C(=O)O)[C@H](OC(=O)c2ccc(C)cc2)C(=O)O)cc1
  -2	20	-4	-2	4	-4

The list continues:
Second line of a record – SENP8 inh	Gli-Sufu antag	UBC13 polyUb	SENP7 inh	Apaf-1 inh	HKDC1 inhibitor
> O=C(O)c1ccccc1
  5	2	2	7	-12	-3
> NCCCCCC(=O)O
  -13	-13	-14	-5	11	2
> c1cnc2c(c1)ccc1cccnc12
  0&-4	76*	-22&-16	0&3	0&-7	-9&0
> NC12CC3CC(CC(C3)C1)C2
  0	2	3	3	-6	-3
> O=c1[nH]c(=O)c2cn[nH]c2[nH]1
  1	-8	2	5	-8	-4
> C#C[C@]1(O)CC[C@H]2[C@@H]3[C@H](C)CC4=C(CCC(=O)C4)[C@H]3CC[C@@]21C
  0	nt	-9	-10	5	nt
> O[C@@H]([C@H](O)[C@H](O)CBr)[C@H](O)CBr
  -8	35	-21	-5	10	-1
> COC(=O)c1c(C)cc(O)c(C)c1O
  -7	2	8	-2	1	2
> O=CNc1ccccc1
  8	3	0	5	10	-6
> Cc1nc2ccccc2n1Cc1ccc(Cl)cc1
  4	42	1	1	-2	0

(listing goes on)
Second line of a record – SENP8 inh	Gli-Sufu antag	UBC13 polyUb	SENP7 inh	Apaf-1 inh	HKDC1 inhibitor
> NC(=Nc1ccccc1)Nc1ccccc1
  3	7	4	5	-2	-4
> NS(=O)(=O)c1cc2c(cc1C(F)(F)F)NCNS2(=O)=O
  0	-5	-16	-9	3	-3
> CCCCCCCCCCCCCCCC(=O)OC/C=C(C)/C=C/C=C(C)/C=C/C1=C(C)CCCC1(C)C
  8	-4	-28	-4	1	-1
> CSc1ccc(CN2CCN(Cc3ccc([N+](=O)[O-])cc3)CC2)cc1
  -4	16	-1	5	11	-4
> NC(=O)c1ccccc1N
  3	-4	10	-2	-9	9
> CC1(C)[C@@H](O)CC[C@]2(C)[C@H]3C(=O)C=C4[C@@H]5C[C@@](C)(C(=O)O)CC[C@]5(C)CC[C@@]4(C)[C@]3(C)CC[C@@H]12
  -4	-5	-25	-13	1	3
> CC[N+](C)(CC)CCOC(=O)C1c2ccccc2Oc2ccccc21
  10	-2	7	1	-10	-5
> O=c1[nH]c2ccccc2n1CCCN1CCN(C(c2ccccc2)c2ccccc2)CC1
  0	nt	19	8	29	nt
> CCCCCCC(=O)O
  -5	-1	-2	-14	5	-4
> CCOC(=O)C(C)C(C)=O (stereo not drawn)
  2	8	-4	3	-6	-5

One compound at a time, as listed above:
CCOc1ccc(-c2cc(C(=O)N/N=C/c3ccc(O)cc3)c3ccccc3n2)cc1 is listed with SENP8 inh: -2; Gli-Sufu antag: -66; UBC13 polyUb: -13; SENP7 inh: -1; Apaf-1 inh: 1; HKDC1 inhibitor: 1
CSc1ccc(CN2CCN(Cc3ccc([N+](=O)[O-])cc3)CC2)cc1 is listed with SENP8 inh: -4; Gli-Sufu antag: 16; UBC13 polyUb: -1; SENP7 inh: 5; Apaf-1 inh: 11; HKDC1 inhibitor: -4
CCCCC(=O)O is listed with SENP8 inh: -15; Gli-Sufu antag: 0; UBC13 polyUb: -1; SENP7 inh: -13; Apaf-1 inh: 4; HKDC1 inhibitor: 3

Next section:
Second line of a record – SENP8 inh	Gli-Sufu antag	UBC13 polyUb	SENP7 inh	Apaf-1 inh	HKDC1 inhibitor
> Cc1ccc([N+](=O)[O-])cc1N
  -1	-21	1	3	-3	-3
> CC(=O)OCCC(C)C
  1	57*	7	4	-3	-6
> O=[N+]([O-])c1ccc2[nH]ncc2c1
  -6	-6	-10	-5	-3	12
> O=C(Nc1ccccc1)c1ccccc1O
  -12	-6	7	6	-7	-6
> O=C(O)c1c(Cl)cccc1Cl
  -13	-17	1	-13	3	-5
> CC[N+](CC)(CC)CCOc1cccc(OCC[N+](CC)(CC)CC)c1OCC[N+](CC)(CC)CC
  -2	-2	6	8	18	0
> COc1ccc(/C(C)=N/Nc2ccc(C(=O)O)cc2)cc1OC
  6	-52	-7	0	-10	11
> C[N+](C)(C)CCCCCCCCCC[N+](C)(C)C
  -7	-6	-7	-6	12	-8
> O=C1OC2(c3ccccc31)c1cc(I)c(O)c(I)c1Oc1c2cc(I)c(O)c1I
  28	nt	14	3	22	nt
> CC1=CC(C)(C)Nc2ccccc21
  3&5	-10&-8	9&-2	4&3	-4&-2	-1&2

Continued.
Second line of a record – SENP8 inh	Gli-Sufu antag	UBC13 polyUb	SENP7 inh	Apaf-1 inh	HKDC1 inhibitor
> NNc1nc(-c2ccccc2)cs1
  0	20	1	10	6	-1
> CC(=O)Nc1ccc(Oc2ncccn2)cc1
  -7	-3	-5	14	-3	-6
> COc1cc(C(=S)N2CCOCC2)ccc1O
  1	6	-5	2	-2	-3
> CC(C(=O)O)c1ccc2c(c1)[nH]c1ccc(Cl)cc12 (stereo not drawn)
  31	-1	-8	10	3	-3
> CC(=O)N(O)CCCCCNC(=O)CCC(=O)N(O)CCCCCNC(=O)CCC(=O)N(O)CCCCCN
  1	2&-19	25	4	-7	-7&-12
> O=[N+]([O-])c1ccc(O)c2ncccc12
  3	13	-62	10	20	15
> CCCCCCCn1ccc(=N)cc1
  -8	84*	2	-2	-11	-3
> COc1cnc(NS(=O)(=O)c2ccc(N)cc2)nc1
  10	nt	7	1	-38	0
> CN(C)CC/C=C1\c2ccccc2COc2ccccc21
  0	11	12	-1	1	-2
> CNC1(C)[C@H]2CC[C@H](C2)C1(C)C (stereo partly drawn)
  14	-6	5	6	-12	-5

Further results follow.
Second line of a record – SENP8 inh	Gli-Sufu antag	UBC13 polyUb	SENP7 inh	Apaf-1 inh	HKDC1 inhibitor
> Cc1ccccc1C#N
  -5	20	4	8	3	-1
> CC(C(=O)O)c1ccc(C(=O)c2ccccc2)s1 (stereo not drawn)
  52*	-4	-6	41	-9	-2
> CCn1cc(C(=O)O)c(=O)c2cc3c(cc21)OCO3
  5	nt	12	-9	-8	nt
> Cc1ccc(S(=O)(=O)NC(=O)NN2CC3CCCC3C2)cc1 (stereo not drawn)
  -6	4	3	1	-2	0
> CCN(CC)CCc1nc(-c2ccccc2)no1
  8	12	14	-3	-12	-3
> Oc1c(I)cc(Cl)c2cccnc12
  4	-3	-35	5	17	-7
> Cc1cc(C(=O)O)ccc1[N+](=O)[O-]
  9	0	-5	3	-10	-1
> CC(=O)O[C@H]1C(=O)[C@@]2(C)C([C@H](OC(=O)c3ccccc3)[C@]3(O)C[C@H](OC(=O)[C@H](O)[C@@H](NC(=O)c4ccccc4)c4ccccc4)C(C)=C1C3(C)C)[C@]1(OC(C)=O)CO[C@@H]1C[C@H]2O (stereo partly drawn)
  -10	-2	-34	-5	12	-3
> COC(=O)CCCCC(=O)OC
  4	7	3	10	-3	-5
> CCN1CCCC1CNC(=O)c1cc(S(=O)(=O)CC)c(N)cc1OC (stereo not drawn)
  4	nt	16	8	-5	nt

Next part:
Second line of a record – SENP8 inh	Gli-Sufu antag	UBC13 polyUb	SENP7 inh	Apaf-1 inh	HKDC1 inhibitor
> CC(=O)O[C@]1(C(C)=O)CC[C@H]2[C@@H]3C=C(Cl)C4=CC(=O)CC[C@]4(C)[C@H]3CC[C@@]21C
  -2	9	8	3	13	-3
> C=CC(C)(O)CCC=C(C)C (stereo not drawn)
  8	4	6	-6	-13	-7
> CCCNC(C)C(=O)Nc1ccccc1C (stereo not drawn)
  -10	2	-5	-8	11	-6
> O=P(O)(OCc1ccccc1)OCc1ccccc1
  5	17	5	7	-5	-3
> COC(=O)C1=C(C)NC(C)=C(C(=O)OC(C)C)C1c1cccc2nonc12 (stereo not drawn)
  -7	9	-11	10	-207	4
> CC1CCc2cc(F)cc3c(=O)c(C(=O)O)cn1c23 (stereo not drawn)
  -2	-4	17	6	-8	-6

In another format: results already given.
| smiles | SENP8 inh | Gli-Sufu antag | UBC13 polyUb | SENP7 inh | Apaf-1 inh | HKDC1 inhibitor |
| --- | --- | --- | --- | --- | --- | --- |
| O=CNc1ccccc1 | 8 | 3 | 0 | 5 | 10 | -6 |
| CC(=O)Nc1ccc(Oc2ncccn2)cc1 | -7 | -3 | -5 | 14 | -3 | -6 |

Some of the compounds tested; rates above refer to the full screens.
